High-throughput results: PubChem, several laboratories
BJeLR lethal – kills HRASV12-expressing BJeLR cells; BJeLR (HRASV12) viability, CellTiter-Glo ATP luminescence, 48 h; reference of the scale not given here; 300,000 tested, 0.17% active; inhibition, % (concentration not given with the values); AID 1554;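 active = replicate mean above 50%; inconclusive = above 50% but judged a plate artefact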;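 note: 50 nL library stock added to about 25 µL; numbers are from one replicate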
Autofluor counter – flagged as autofluorescent in microsphere protease counterscreen; 360,000 tested, 3.1% active; AID 624483; compound autofluorescence counterscreen, microsphere flow cytometry; stronger effect = higher value; fluorescence intensity (test concentration not listed);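 active = at least 3 SD above the mean of all compounds, about 16000 in these data; inconclusive = too few beads counted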;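 note: 100 nL of 1 mM stock went into each well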
PrP UTR inh – suppresses PrP 5' UTR mRNA reporter expression; cell-based PrP 5' UTR mRNA reporter, plate reader; inhibition, % (concentration not given with the values); 340,000 tested, 0.35% active;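 active = every replicate at 50% or more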;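 note: 0 = median of the neutral control wells; tested in H4 reporter cells; numbers are from one replicate; inactives centre near -14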
Mtb hypoxia rep – inhibitors of hypoxia-regulated fluorescent reporter in Mycobacterium tuberculosis. M. tuberculosis hypoxia-regulated fluorescent reporter, fluorescence. fluorescence inhibition, % (test concentration not listed). 300,000 tested, 0.1% active;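 active = 35 to 45% if threefold the growth effect, above 45% if 1.5-fold the growth effect; inactive = the rest, general growth blockers included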;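 note: wells of about 50 µL received 100 nL stock; 0% = vehicle wells and 100% = reference inhibitor wells; whole bacteria with a GFP reporter of the hypoxia response; strong numbers were not always called active; many hits fall short of the cut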
ugtP null kill – compounds lethal to S. aureus RN4220 ugtP deletion mutant. OD600 growth, 16 h; some inactives read as strong as hits. growth inhibition, % (no concentration beside the values). 330,000 tested, 0.54% active. AID 1259309;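 active = z-score under -3 and OD600 up to 0.15 on both plates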;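 note: plate controls were untreated wells for no effect and antibiotic for full effect; wells of about 80 µL received 100 nL stock; the first replicate is given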
Sa RN4220 lethal – kills Staphylococcus aureus RN4220. AID 1259311. S. aureus RN4220 growth, OD600, 16 h. 330,000 tested, 0.33% active. inhibition, % (no concentration beside the values);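 active = z-score of -3 or lower and OD600 up to 0.18 on both plates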;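 note: plate controls were untreated cells for no effect and reference antibiotic for full effect; stock transfer was 100 nL into about 80 µL; one replicate is shown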
Mtb hypoxia rep growth – further read-out of Mtb hypoxia rep, marked with its call; growth inhibition, %; measured here: M. tuberculosis growth (absorbance);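 0% = vehicle and 100% = reference antibiotic; read after six days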
* = called active by the depositor; ? = inconclusive; / = no result given; & = joins results of further samples.

SMILES	BJeLR lethal	Autofluor counter	PrP UTR inh	Mtb hypoxia rep	Mtb hypoxia rep growth	ugtP null kill	Sa RN4220 lethal
CCOC1OC(C(=O)N2CCCCCCC2)=CC(C)C1CCCO (centres undefined)	/	/	/	7	2	2	5.2
COC(=O)C1=C(C)NC2=C(C(=O)CCC2)C1c1ccc(-c2ccsc2C(=O)OC)o1 (centres undefined)	-2	3713	1	10	4	1	7.7
O=C(Cc1cc(=O)oc2cc(O)ccc12)NC(Cc1ccc(Cl)cc1)C(=O)O (centres undefined)	-1	4170	-13	-4	0	13	1.6
O=C(NCCCCc1ccccc1)C12CN(Cc3ccccc3)CC1C(c1ccc([N+](=O)[O-])cc1)=NO2 (centres undefined)	-9	3883	-10	-1	4	-4	-3.6
CCCCN(C)C=Nc1c(C#N)cnn1-c1ccc(C)cc1	/	/	/	8	15	-7	9.9
CCNc1nc(NCC)n2c(SCC(=O)Nc3ccc(F)cc3)nnc2n1	-8	6964	-14	3	-4	5	1.3
Cc1cc(-c2ccccc2)n2nc(C)c(-c3ccccc3)c2n1	3	2759	-25	/	/	6	-2.8
NCCCC[C@H]1CNC(=O)C(=O)N1CCc1cccc2ccccc12	1	4250	-16	/	/	/	/
O=C(NCc1csc(-c2cccs2)n1)c1cccc(Cl)c1	-11	6275	-56	-5	-5	9	21
CCOC(=O)C1CCN(S(=O)(=O)c2cccc(-c3cn4cccnc4n3)c2)CC1	-3	3007	-28	14	14	-8	-15
O=C1CCCN1C(=O)COc1cc(F)ccc1[N+](=O)[O-]	/	4118	-11	-7	10	0	-0.7
O=C(Nc1nnc(S(=O)(=O)N2CCCC2)s1)c1ccccc1Cl	1	5267	-17	8	6	16	-3.8
CC(C)COCC1CC2(CC(C)(c3csc(N)n3)OC2=O)C(=O)O1 (centres undefined)	/	3561	-21&-22	18	16	-3	-9.4
CS(=O)(=O)N(Cc1ccc(C(=O)NCc2ccco2)cc1)c1ccccc1	4	2848	-16	-7	10	-7	1.3
COc1cc(/C=N/NC(=O)CSc2n[nH]c(=O)[nH]c2=O)cc(OC)c1O	1	4532	-13	/	/	/	/
CC(C)NC(=O)COc1ccc(OCc2ccccc2)cc1	-11	3921	-23	9	11	7	-2.8
COc1ccccc1CCC(=O)Nc1ccc(S(=O)(=O)Nc2nccs2)cc1	1	5837	-15	/	/	/	/
Cc1ccc(S(=O)(=O)c2nc(NCCCn3ccnc3)sc2Cl)cc1	3	3080	-18	-1	5	3	4.3
O=C(CNC(=S)N(CCCN1CCOCC1)Cc1cccs1)N1CCOCC1	5	7546	-2	5	9	4	2.2
Cc1ccccc1S(=O)(=O)N1[C@@H](c2ccc(Cl)cc2)C(C(=O)O)=CC[C@H]1c1ccc(Cl)cc1	/	3154	-16	2	-4	20	14
O=Cc1cc(-c2ccccc2)[nH]c1-c1ccccc1	2	3823	-64	13	6	-5	4.4
CCOc1ccc(C(C)=O)cc1CN1C(=O)c2ccccc2S1(=O)=O	-3	6022	-8	-4	14	1	-0.8
CC1(C)CC(=O)C(C=NCCCN2CCCC2=O)=C(O)C1	3	5192	-25	-1	4	11	5.0
COc1ccc(NC(=O)CCC2COc3ccccc3O2)c(OC)c1 (centres undefined)	-11	3611	11	/	/	-4	15
COc1cccc(NC(=O)CSc2nc3ccccc3c(=O)n2CCCC(=O)NCCCN2CCOCC2)c1	-19	5476	-6	9	1	3	5.6

Six entries from above, with values under each structure:
Screens in order: BJeLR lethal, Autofluor counter, PrP UTR inh, Mtb hypoxia rep, Mtb hypoxia rep growth, ugtP null kill, Sa RN4220 lethal
- COC(=O)C1=C(C)NC2=C(C(=O)CCC2)C1c1ccc(-c2ccsc2C(=O)OC)o1 (centres undefined)
→ -2, 3713, 1, 10, 4, 1, 7.7
- Cc1ccc(S(=O)(=O)c2nc(NCCCn3ccnc3)sc2Cl)cc1
→ 3, 3080, -18, -1, 5, 3, 4.3
- O=C1CCCN1C(=O)COc1cc(F)ccc1[N+](=O)[O-]
→ /, 4118, -11, -7, 10, 0, -0.7
- O=Cc1cc(-c2ccccc2)[nH]c1-c1ccccc1
→ 2, 3823, -64, 13, 6, -5, 4.4
- Cc1cc(-c2ccccc2)n2nc(C)c(-c3ccccc3)c2n1
→ 3, 2759, -25, /, /, 6, -2.8
- Cc1ccccc1S(=O)(=O)N1[C@@H](c2ccc(Cl)cc2)C(C(=O)O)=CC[C@H]1c1ccc(Cl)cc1
→ /, 3154, -16, 2, -4, 20, 14

(cont.)
SMILES	BJeLR lethal	Autofluor counter	PrP UTR inh	Mtb hypoxia rep	Mtb hypoxia rep growth	ugtP null kill	Sa RN4220 lethal
Cc1cccc2sc(NC(=O)CN3C(=O)NC4(CCCC4)C3=O)nc12	7	6058	-20	-7	0	0	-3.0
Cc1cccc(C(=O)Oc2ccccc2C(=O)N2CCOCC2)c1	8	?	-14	3	-2	6	2.9
Cc1ccc(NC(=S)N(CCN(C)C)C(C)c2cccnc2)cc1 (centres undefined)	2	4669	-28	6	-4	5	8.8
Clc1c(Cl)c(Cl)c2n[nH]nc2c1Cl	4	5289	-28	4	14	62	69
CS(=O)(=O)N(CCc1ccccc1)CC(=O)Nc1ccccc1	-11	2020	-9	-6	-1	0	1.2
CC(CO)(CO)NCc1ccc(-c2ccccc2)cc1	3	2047	-34	9	4	2	4.4
COc1cc2cc(CCOC(=O)c3ccc(C(F)(F)F)cc3)oc(=O)c2cc1OC	/	2932	-10	7	4	-1	4.1
COc1ccc(C(CNC(=O)c2cc3c(s2)CCC(C)C3)N2CCCC2)cc1 (centres undefined)	/	7449	2	6	11	0	-2.3
COC(=O)[C@H](C(C)C)N(Cc1ccccc1)S(=O)(=O)CCN1CCCC1	/	3647	-20	3	8	3	0.8
O=C(CSc1ccc(Br)cc1)NC1CCCCCC1	/	3764	-18	-1	7	0	-0.4
Cc1ncc([N+](=O)[O-])n1Cc1ccccc1	3	9759	-7	11	-4	2	-1.9
CCOC(=O)C(Sc1nnc2c3ccccc3n(CC)c2n1)C(=O)OCC	8	16233*	-2	-1	-2	0	2.7
COc1cccc(CNC(=O)CNC(=O)c2cccs2)c1	0	5674	2	8	10	7	0.7
COC(=O)Cc1cc(=O)n2[nH]c(C)nc2n1	5	6261	-20	4	-4	4	2.5
CCCc1nnc(NC(=O)CCC(=O)O)s1	1	4489	-16	4	0	11	4.3
COc1ccccc1-c1cc(C(=O)NCc2ccco2)no1	1	11046	-6	20	11	3	3.2
C=CCn1c(C)nnc1SCC(=O)c1c(N)n(C2CC2)c(=O)[nH]c1=O	/	6987	-17	4	-2	2	0.3
Cc1ccc(S(=O)(=O)Oc2ccc(C=NNC(=O)c3nn(C)cc3[N+](=O)[O-])cc2)cc1	/	/	/	6	2	-1	0.6
CCc1ccc(-c2nc(CS(=O)CC(=O)NC3CCCCCC3)c(C)o2)cc1 (centres undefined)	-4	5727	-17	4	1	-8	-5.9
CCc1ccccc1NC(=O)CNC(=O)c1n[nH]c(=O)c2ccccc12	/	7748	-19	10	4	5	3.8
CCOC(=O)N1CCN(Cc2nc(N)nc(Nc3ccc(OC)cc3)n2)CC1	2	11283	-24	9	6	-3	3.3
COc1ccc(CNc2nn[nH]n2)cc1OC	6	9280	-11	-3	4	-1	4.2
O=C(CN(Cc1ccccc1)S(=O)(=O)c1ccc(Cl)cc1)NCC1CCCO1 (centres undefined)	4	4305	-7	12	0	3	2.8
COc1ccccc1NC(=O)c1c(Nc2ccccc2F)sc(C(=O)Nc2cccc(Cl)c2)c1N	9	2547	-10	20	9	-16	-8.9
Clc1cccc(CN2CCN(Cc3nc(CCc4ccccc4)no3)CC2)c1	-1	4358	-18	5	5	5	5.1
Other records follow:
SMILES	BJeLR lethal	Autofluor counter	PrP UTR inh	Mtb hypoxia rep	Mtb hypoxia rep growth	ugtP null kill	Sa RN4220 lethal
CN(C(=O)c1cc(S(=O)(=O)N2CCc3ccccc32)cn1C)C1CCCCC1	1	4468	-2	3	10	16	26
Cc1ccc(-c2n[nH]c(=S)n2Cc2ccccc2)cc1	-1	22893*	3	2	7	-4	4.2
C[C@@H]1CN([C@H](C)CO)C(=O)Cc2cc(NC(=O)Nc3ccccc3)ccc2O[C@@H]1CN(C)Cc1ccc2c(c1)OCO2	/	4373	-14	0	3	1	29
COc1ccc(/C=C/C(=O)NC(=S)N2CCN(c3ccccn3)CC2)cc1OC	-8	3936	-42	6	4	-3	-3.2
Cc1c(N=C2C=CC(=O)c3ccccc32)c(=O)n(-c2ccccc2)n1C	1	4194	-44	3	9	10	6.1
COC(=O)CN(c1ccc(OC)cc1)S(=O)(=O)c1ccc(OC)c(OC)c1	1	3804	-6	10	3	7	6.1
C=CCNC(=S)NNC(=O)c1cc(Cl)ccc1OC	1	5405	/	4	3	7	4.4
CNC(=S)N1CCN(c2ccccn2)CC1	9	9831	2	8	3	4	4.3
O=C1NCCN1CCNS(=O)(=O)c1ccc(F)cc1	1	2439	-37	5	2	16	0.9
Cc1oc(-c2ccccc2)nc1C(=O)Nc1nccs1	3	9376	-37	6	4	-15	9.3
N#CC1=C(N)OC2=C(C(=O)CCC2)C1Cc1ccccc1 (centres undefined)	-4	8631	/	4	4	-6	-0.2
COc1ccc(C(=O)NC23CC4CC(CC(C4)C2)C3)cc1OC	-20	3502	-5	4	6	5	2.1
CC(C)(C)NC(=O)C(c1ccncc1)N(C(=O)c1csnn1)c1cccc2ccccc12 (centres undefined)	-4	4113	-43	7	10	4	0.8
Cc1ccc(C=NNC(=O)CNC(=O)c2ccc(S(=O)(=O)N(C)C)cc2)o1	/	/	/	-18	-3	2	-2.0
COc1ccc(N(C(=O)c2snc(C(N)=O)c2N)C(CC(C)C)C(=O)NCC2CCCO2)cc1 (centres undefined)	-5	5552	-15	4	6	1	6.5
CCOC(=O)C1(Cc2cccc(OC)c2)CCN(Cc2cnc(C)s2)CC1	5	2025	-6	12	9	-1	4.8
COc1ccc(Cl)cc1N(CC(=O)NCCSc1ccccn1)S(=O)(=O)c1ccccc1	-6	3636	-40	2	2	5	3.3
O=C1C2C3C=CC(C3=C(c3ccccc3)c3ccccc3)C2C(=O)N1Cc1ccccc1 (centres undefined)	-1	3178	-7	6	3	-2	-1.7
Cc1cc(C)n(C2CC(=O)N(c3cc(Cl)cc(Cl)c3)C2=O)n1 (centres undefined)	-1	4090	-8	4	6	0	1.6
COC(=O)C1=C(C)NC(=S)NC1c1ccco1 (centres undefined)	-1	4537	-19	1	6	3	5.0
COc1c(C)cc(S(=O)(=O)NC2CC(C)(C)NC(C)(C)C2)c(C)c1C	0	3158	-3	14	8	6	5.2
CCc1ccc(C(=O)NN=C(C)c2cccnc2)s1	/	/	/	4	10	2	4.3
CCn1c(=O)n(CC(=O)N(C)Cc2ccccc2)c(=O)c2ccccc21	0	4778	1	/	/	4	0.5
Fc1ccccc1/C=C/c1ccc2ccccc2n1	15	8673	52	1	-18	37	-6.2
COc1ccc(/C=N/NC(=O)c2ccc(Cn3cc([N+](=O)[O-])cn3)o2)cc1O	-2	2409	-12	/	/	/	/
Following part
SMILES	BJeLR lethal	Autofluor counter	PrP UTR inh	Mtb hypoxia rep	Mtb hypoxia rep growth	ugtP null kill	Sa RN4220 lethal
Cc1cccc(C(=O)NCc2nnc(SC(C)C(=O)Nc3nnc(C)s3)n2C)c1 (centres undefined)	-12	5426	-14	-13	4	0	0.4
COCCOc1cc(N)c(Cl)cc1Cl	4	3574	-11	11	-2	10	3.1
O=C(Nc1ccc(Cl)c(S(=O)(=O)N2CCOCC2)c1)[C@@H]1CCCN1C(=O)c1cccs1	/	5509	-18	4	1	0	-6.8
O=C(NC1CCCC1)C(c1ccncc1)N(C(=O)c1csnn1)C1CCCC1 (centres undefined)	-7	4342	-8	3	21	6	1.9
O=C(NCc1ccc2c(c1)OCO2)C1CCN(S(=O)(=O)c2cccs2)CC1	-3	4441	-8	19	16	8	1.3
CNc1nc2cc([N+](=O)[O-])c([N+](=O)[O-])cc2nc1NC	-7	2584	-19	/	/	/	/
COc1ccc(C(=O)N2CCN(c3cccc(Cl)c3)CC2)cc1S(=O)(=O)NC1CC1	/	7737	-65	10	2	0	0.9
COc1cc(NC(=O)c2ccc3c(c2)S(=O)(=O)N=C2CCCCCN23)cc(OC)c1	8	6462	-3	13	1	1	5.3
CCN1c2ccccc2-c2nc3ccccc3n2C1c1ccco1 (centres undefined)	7	11555	-23	10	22	11	-8.0
COc1cc(C(=O)OCCCN=C2NS(=O)(=O)c3ccccc32)cc(OC)c1OC	0	4883	-20	3	10	-5	3.7
Cc1cccc(NC(=O)COC(=O)CN2CCCCCC2=O)c1C	/	2957	-5	6	2	15	6.3
